VDR inhibitor: vitamin D3 receptor (human) inhibition | P11473 | Potency, µM, without a hit: max response, negative = inhibition, hits mostly inhibitors | hit rate 0.93% among 400,000 | VDR-SRC2-3 peptide fluorescence polarization, 2 h | AID 504847; active = well fitted inhibition curve with a large enough effect; inconclusive = small, poorly fitted or top-dose-only effect, or another doubt; inactive = no such curve, though single readings can be large or run the other way; also: series mostly up to about 120 µM
Target sequence (P11473 whole entry, looked up): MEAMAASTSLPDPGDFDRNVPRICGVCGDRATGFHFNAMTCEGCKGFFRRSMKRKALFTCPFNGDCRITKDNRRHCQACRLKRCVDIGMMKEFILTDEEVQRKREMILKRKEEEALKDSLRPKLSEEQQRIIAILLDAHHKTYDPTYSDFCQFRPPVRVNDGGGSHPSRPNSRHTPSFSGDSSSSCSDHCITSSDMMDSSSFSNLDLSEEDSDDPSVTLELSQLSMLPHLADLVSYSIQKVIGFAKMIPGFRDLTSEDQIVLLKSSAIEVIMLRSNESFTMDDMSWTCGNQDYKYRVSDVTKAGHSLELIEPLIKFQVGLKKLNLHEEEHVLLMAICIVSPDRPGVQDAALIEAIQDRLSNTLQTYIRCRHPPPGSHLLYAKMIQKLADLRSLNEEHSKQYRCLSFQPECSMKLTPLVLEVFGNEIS
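Fluorescence polarization assay of small-molecule disruption of VDR binding to coregulator peptide SRC2-3. Compounds and controls pin-transferred, then read after 2 h incubation at ambient room temperature.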
* = called active by the depositor; ? = inconclusive; & = joins results of further samples; ! = not active in a repeat; [ ] = dose if it differs, or a comment. % is scaled to controls: 0 for no effect and ±100 for the full control effect; potency is read from the fitted curve at half-maximal effect. An excerpt; the hit share may differ from the screen's.

VDR inhibitor	Compound
-3%	CCCCn1c(CNC(=O)CC)nc2ccccc21
-1%	CCN1CCN(c2nc(N)c([N+](=O)[O-])c(Nc3ccc(C)cc3)n2)CC1
32µM*!	c1csc(CNc2ncnc3ccc(-c4ccoc4)cc23)c1
-9%	O=C(Nc1ccc(Cl)c(Cl)c1)c1cccc(S(=O)(=O)NCc2cccnc2)c1
-8%	CCOc1cc(C(=O)N(CC)CC(=O)Nc2c(F)cccc2F)ccc1OCC(=O)N1CCCCC1
-1%	Cc1cc(NS(=O)(=O)c2ccc(NC(=O)c3ccco3)cc2)nc(C)n1
-24%	COc1ccc(C(=O)NCCN2CCN(C(=O)c3ccc(OC)c(OC)c3)CC2)cc1OC
-8%	CCOC(=O)CN1C(=O)C(=O)N(Cc2ccccc2F)C1=O
19%	Cc1ccccc1Cn1cc(CCC(=O)NC(C)c2ccccc2)c2ccccc21 (configuration not stated)
2%	O=C(NCCc1ccccc1C(F)(F)F)C1CCC(=O)N(CCCN2CCCC2=O)C1 (configuration not stated)
5%	O=C(C[C@H]1C/C=C\CC[C@@H](Cc2ccc(F)cc2)C(=O)OC[C@H]2CCCN2C1=O)N[C@@H](CO)Cc1ccccc1
7%	CCOc1ccccc1N(CC(=O)OC)S(C)(=O)=O
2%	Cc1c(Cl)cccc1NC(=O)CN(C1CCCCC1)S(C)(=O)=O
-7%	COc1ccc(CC(NC(C)=O)C(=O)N2CCN(C(=O)Nc3ccc(Cl)cc3)CC2)cc1OC (configuration not stated)
7%	CCOc1ccccc1-c1nc(Cn2c(=O)cc(C)c3c(C)nn(-c4ccccc4)c32)c(C)o1
-9%	COc1ccc(CN(CC(=O)NCC2CCCO2)C(=O)CNS(=O)(=O)c2ccc(C)cc2)cc1 (configuration not stated)
1%	C#CCNC(=O)C1CCN(c2cc(C)nc(-c3ccccc3)n2)CC1
-3%	CNS(=O)(=O)c1cc(Br)ccc1S(=O)c1ccccc1C(=O)O (configuration not stated)
-6%	Cc1cc(C)c2c(n1)SCC(=O)N2CC(=O)Nc1cccc(C)c1C
-11%	O=[N+]([O-])c1ccc(Cc2cncc(O)c2)cc1
-11%	O=C(CN1C(=O)CSc2ccccc21)NCCC1=CCCCC1
-8%	O=C1N=C2SCCN2/C1=C\c1ccccc1Cl
0%	CCOc1ccc(S(=O)(=O)N2CCCC(C(=O)N3CCN(c4ccccc4)CC3)C2)cc1 (configuration not stated)
-5%	N#Cc1cccc(NC(=O)N2CCCC3(CCN(C(=O)c4cccc(F)c4)CC3)C2)c1
2%	O/N=C1\CC/C(=N\O)c2nn(-c3ccccc3Cl)nc21
-7%	Cc1cc(C)c2c(NC(=O)c3ccccc3Cl)c(C(=O)NCc3ccc(Cl)cc3)sc2n1
2%	c1ccc(-c2cc3c(nn2)CCc2nonc2-3)cc1
12%	COc1ccc(Cl)cc1NC(=O)C1CCN(c2ncnc3c2nc2n3CCCCC2)CC1
-17%	CC1CCCCN1C(=O)CSc1nnc2c(n1)[nH]c1ccccc12 (configuration not stated)
8%	CNC(=O)c1ccc(NC(=O)c2cc(S(=O)(=O)N3CCOCC3)ccc2N2CCCC2)cc1

A different layout for 21 compounds above.
smiles | VDR inhibitor
COc1ccc(C(=O)NCCN2CCN(C(=O)c3ccc(OC)c(OC)c3)CC2)cc1OC | -24%
CCOC(=O)CN1C(=O)C(=O)N(Cc2ccccc2F)C1=O | -8%
Cc1ccccc1Cn1cc(CCC(=O)NC(C)c2ccccc2)c2ccccc21 (configuration not stated) | 19%
O=C(NCCc1ccccc1C(F)(F)F)C1CCC(=O)N(CCCN2CCCC2=O)C1 (configuration not stated) | 2%
O=C(C[C@H]1C/C=C\CC[C@@H](Cc2ccc(F)cc2)C(=O)OC[C@H]2CCCN2C1=O)N[C@@H](CO)Cc1ccccc1 | 5%
CCOc1ccccc1N(CC(=O)OC)S(C)(=O)=O | 7%
Cc1c(Cl)cccc1NC(=O)CN(C1CCCCC1)S(C)(=O)=O | 2%
COc1ccc(CC(NC(C)=O)C(=O)N2CCN(C(=O)Nc3ccc(Cl)cc3)CC2)cc1OC (configuration not stated) | -7%
CCOc1ccccc1-c1nc(Cn2c(=O)cc(C)c3c(C)nn(-c4ccccc4)c32)c(C)o1 | 7%
COc1ccc(CN(CC(=O)NCC2CCCO2)C(=O)CNS(=O)(=O)c2ccc(C)cc2)cc1 (configuration not stated) | -9%
C#CCNC(=O)C1CCN(c2cc(C)nc(-c3ccccc3)n2)CC1 | 1%
CNS(=O)(=O)c1cc(Br)ccc1S(=O)c1ccccc1C(=O)O (configuration not stated) | -3%
Cc1cc(C)c2c(n1)SCC(=O)N2CC(=O)Nc1cccc(C)c1C | -6%
O=[N+]([O-])c1ccc(Cc2cncc(O)c2)cc1 | -11%
O=C(CN1C(=O)CSc2ccccc21)NCCC1=CCCCC1 | -11%
O=C1N=C2SCCN2/C1=C\c1ccccc1Cl | -8%
CCOc1ccc(S(=O)(=O)N2CCCC(C(=O)N3CCN(c4ccccc4)CC3)C2)cc1 (configuration not stated) | 0%
N#Cc1cccc(NC(=O)N2CCCC3(CCN(C(=O)c4cccc(F)c4)CC3)C2)c1 | -5%
O/N=C1\CC/C(=N\O)c2nn(-c3ccccc3Cl)nc21 | 2%
Cc1cc(C)c2c(NC(=O)c3ccccc3Cl)c(C(=O)NCc3ccc(Cl)cc3)sc2n1 | -7%
c1ccc(-c2cc3c(nn2)CCc2nonc2-3)cc1 | 2%

More structures follow:
VDR inhibitor	Compound
-8%	CC(C)NC(=O)N(O)C1N(Cc2ccc3c(c2)OCO3)C(=S)SC1(C)C (configuration not stated)
-6%	C(=C\c1ccccc1)/CSc1nnc(-c2ccccc2)n1Cc1ccco1
6%	O=C1c2cccc3cccc(c23)C(=O)N1Cc1ccco1
-4%	CS(=O)(=O)N1CCCC(C(=O)NCc2ccco2)C1 (configuration not stated)
1%	COc1cc(NC(=O)C2CCN(c3nc4ccccc4nc3C(F)(F)F)CC2)cc(OC)c1
?	CC[C@]1(C(=O)OC)[C@H]2C(=O)N(Cc3ccccc3)C(=O)[C@H]2[C@H]2CN=C(SCC(=O)c3ccccc3)N21
-5%	O=C(CCC(=O)N1CCOc2ccccc21)NC1CCCCCC1
-7%	Cc1ccc(Cn2nnc3c(=O)[nH]c(C4CCCN(C(=O)c5ccco5)C4)nc32)cc1 (configuration not stated)
-11%	CCN(CC)S(=O)(=O)c1ccc(-c2nnc(SC)o2)cc1
-10%	N#CC(c1nc2ccccc2nc1N1CCOCC1)S(=O)(=O)c1ccccc1 (configuration not stated)
-13%	CN(C)S(=O)(=O)c1ccc(NC(=O)c2cc(F)c(F)cc2Cl)cc1
2%	CCN1CCN(S(=O)(=O)c2ccc3c(c2)NC(=O)CS3)CC1
-11%	COc1ccc(NC(=O)CCNC(=O)C2CCN(S(=O)(=O)c3ccc(F)cc3)CC2)cc1OC
8%	CCc1ccc(C(=O)NC2CCCCC2)s1
15%	O=C(NCCCO)c1cc2c([nH]c3ccccc32)c(-c2ccc(F)cc2)n1
3%	Cc1cc(-c2ccccc2)c2c(=O)n(-c3ccccc3)[nH]c2n1
2%	Cc1cccc(NC(=O)/C(C#N)=C/c2cn(CC(=O)NCc3ccco3)c3ccccc23)c1C
-12%	COc1ccc(C(CCNCc2ccc(N(C)C)cc2)c2ccccc2)cc1 (configuration not stated)
0%	C/C(CC(=O)Nc1ccccc1Cl)=N\NC(=O)C(=O)NCCO
-10%	O=C1NC(c2ccccc2)=CC(c2ccccc2O)N1 (configuration not stated)
-23%	COc1ccc(CN(C(=O)c2nsc(Cl)c2Cl)C(C(=O)NC2CCCC2)c2ccc(C)cc2)cc1 (configuration not stated)
-9%	CCOC(=O)c1cc(S(=O)(=O)NC2CCCCC2)cn1C
8%	CN1C(=O)Cc2cc(S(=O)(=O)NCc3ccccc3Cl)ccc21
0%	Cc1noc(NS(=O)(=O)c2ccc(NC(=O)c3ccccc3NS(=O)(=O)c3ccc(F)cc3)cc2)c1C
-13%	O=C(O)c1cc2[nH]c3c(c2cc1Cl)CCCC3
-5%	O=C(CN1CCN(C(=O)C2CCCO2)CC1)Nc1cc(C(F)(F)F)ccc1Cl (configuration not stated)
5%	C/C(=C\c1ccccc1)C(=O)NCCN1CCOCC1
8%	COc1ccc(Br)cc1S(=O)(=O)N(CC(=O)N1CCOCC1)c1ccccc1
-3%	CC(=O)Nc1ccc(NC(=O)c2c(C)nn(Cc3ccccc3)c2Cl)cc1
6%	Cc1c(CC(=O)O)c(=O)oc2c(C)c(OCc3nn[nH]n3)ccc12
-2%	Cc1noc(C)c1S(=O)(=O)N(CC(=O)N1CCc2ccccc21)c1ccc(C(C)C)cc1
-5%	CCN(CC)CC(=O)N1c2ccccc2Sc2ccc(Cl)cc21
-8%	O=C1CCCCC1C(=O)c1cn(-c2ccc(Cl)c(Cl)c2)nn1 (configuration not stated)
9%	CCOc1cc(C(=O)OCC(=O)Nc2cccc(C)c2)ccc1OCC(=O)N1CCOCC1
6%	O=C(NCC1CCCO1)c1cn(-c2ccccc2)nc1-c1ccc(F)cc1 (configuration not stated)
13%	COc1cccc(-n2nnnc2SCC(=O)c2ccc(NC(C)=O)cc2)c1
10%	CCOC(=O)c1c(S(=O)(=O)N2CCC(C(=O)Nc3ccc(OCC)cc3)CC2)c(C)n(C)c1C
5%	Cc1cc(C(=O)COC(=O)c2nccnc2N)c(C)n1C
8%	Cc1ccc(C)c(S(=O)(=O)N2CCCOC2CNC(=O)C(=O)NCCCN2CCOCC2)c1 (configuration not stated)
4%	CC(C)CNC(=O)c1cccc(NC(=O)c2ccc(NC(=O)c3ccco3)cc2)c1
-1%	Cc1ccc(NC(=O)CN(C)C(=O)CCSc2ccc(F)cc2)cc1
-8%	CN(CC(=O)Nc1ccc(F)c(F)c1F)C(=O)C1CCCCC1
-20%	CC(C)c1ccc(NC(=O)Nc2cnccn2)cc1
-1%	COCCn1nnnc1C(c1cc2cc(C)ccc2[nH]c1=O)N1CCN(C2CCCCC2)CC1 (configuration not stated)
-19%	Cc1cccc(CSc2nnc(Cn3c(=O)sc4ccccc43)n2C)c1
-13%	CCOc1ccc2nc(NC(=O)CCC(=O)c3cccs3)sc2c1
79µM*	C=CCOc1ccc(/C=C2/C(=O)ON=C2C)cc1OCC
10%	O=C(c1ccc(CS(=O)c2ccccc2Cl)o1)N1CCN(c2ccccc2F)CC1 (configuration not stated)
7%	CCOC(=O)C(=O)Nc1nnc(Cc2ccc(OC)c(OC)c2)s1
2%	Cc1cc(/C(N)=N/OC(=O)c2ccc(Cl)cc2)no1

Later entries
VDR inhibitor	Compound
-23%	COc1cc(C(=O)N(C)CC(=O)Nc2cccc(F)c2)ccc1OCc1ccccc1
-9%	O=S(=O)(Nc1nc2ccccc2nc1Nc1ccccc1Br)c1ccccc1
-13%	COc1ccc(/C=C/CN2CCN(CCc3ccccc3)C(CCO)C2)cc1 (configuration not stated)
-25%	COc1cc(/C=C2\Oc3ccc(C#Cc4ccc(O)cc4)cc3C2=O)cc(OC)c1
-4%	COc1ccccc1OCC(=O)NCC1CCCN(C(=O)c2ccccc2C(C)=O)C1 (configuration not stated)
19%	COc1ccccc1NS(=O)(=O)c1ccc2oc(SC3CCOC3=O)nc2c1 (configuration not stated)
3%	NC1=NC(=O)/C(=C/c2ccsc2)S1
6%	CC(CC(=O)NC1CCCCC1)S(=O)(=O)c1ccc2c(c1)NC(=O)CO2 (configuration not stated)
13%	COC(=O)c1c(NC(=O)c2ccc(S(=O)(=O)N3CCCCC3)cc2)sc2c1CCN(C)C2
7%	COc1ccccc1CNC(=O)c1ccc2c(c1)nnn2C1CCCC1
-23%	COC(=O)c1ccc(C2C(C(=O)Nc3ccccc3C)=C(C)Nc3ncnn32)cc1 (configuration not stated)
-1%	Cc1ccc(C)c(S(=O)(=O)c2c(C)cc(C)[nH]c2=O)c1
3%	O=C(COC(=O)CSc1ccccc1)Nc1ccc(F)cc1F
-25%	O=C1CCc2ccccc2N1Cc1ccccc1
4%	CCCCC1=CC2=CC(=O)C(C)(OC(=O)c3cnc4ccccc4n3)C(=O)C2=CO1 (configuration not stated)
-24%	CC1(C)CC(=O)C=C(Nc2ccc(Cl)c(Br)c2)C1
-16%	O=C(CC(=O)c1ccccc1O)c1cccc(F)c1
-24%	Oc1ccc(Cl)cc1CNCc1ccc(F)c(F)c1
-5%	CCc1ccc2nc(NC(=O)C3CCN(c4ncnc5sc(C)c(C)c45)CC3)sc2c1
-23%	C=C(C)c1cccc(C(C)(C)NC(=O)Nc2cc(C)ccn2)c1
11%&-23%	Cc1cccc(NS(=O)(=O)c2ccc3[nH]c(=O)[nH]c3c2)c1C
6%	COc1cc(CCC(=O)N2CCN(c3cccc(C)c3C)CC2)cc(OC)c1OC
9%	Cc1ccc(C(=O)NC(=S)N2CCCC2)cc1
70%[activator]	Cc1noc(/C=C/N(C)C)c1S(=O)(=O)N1CCCC(C(=O)NCc2ccccc2Cl)C1 (configuration not stated)
-9%	Cc1ccc(C)c(OCCC(=O)OCC(=O)Nc2ccc(N3CCOCC3)cc2)c1
-17%	O=C(O)CCCC(=O)N1CCc2cc(S(=O)(=O)N3CCc4ccccc43)ccc21
7%	O=C(COc1ccc(Br)cc1F)NC1CC1
-12%	COc1ccc(/C=C/C(=O)N(C)CC(=O)Nc2cccc(F)c2)cc1S(=O)(=O)N1CCCCC1
2%	O=C(CSC(=S)N1CCCCC1)Nc1nc(-c2ccccc2)c(-c2ccccc2)o1
3%	COc1cccc(NC(=O)Cn2cc(C(=O)C3CCCCC3)c3ccccc32)c1
-9%	O=[N+]([O-])c1ccc(C(O)C(CO)NC(=S)Nc2ccccc2)cc1 (configuration not stated)
-15%	CCC(=O)Nc1cccc(-c2ccc(N3CCN(C)CC3)nn2)c1
9%	O=C(CCCCn1c(=O)c2ccccc2n(CC(=O)Nc2ccccc2)c1=O)NCc1ccccc1Cl

Another view of 2 compounds above.
| mol | VDR inhibitor |
| --- | --- |
| CCOc1ccccc1-c1nc(Cn2c(=O)cc(C)c3c(C)nn(-c4ccccc4)c32)c(C)o1 | 7% |
| COc1ccc(CN(CC(=O)NCC2CCCO2)C(=O)CNS(=O)(=O)c2ccc(C)cc2)cc1 (configuration not stated) | -9% |

Source: PubChem (National Center for Advancing Translational Sciences (NCATS))
